# Screening results as filed in PubChem BioAssay.
# ALR H2O2 inh: inhibitors of human ALR sulfhydryl oxidase, primary screen, biochemical, H2O2 detection, HRP-luminol luminescence, single point. FAD-linked sulfhydryl oxidase ALR (Homo sapiens), P55789. purified ALR, DTT oxidation. inhibition, % (concentration not given with the values). 3.8% of 290,000 active. AID 485317, 2010;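 active = mean and each replicate at 75% or more; inconclusive = only one of the two met; inactive = neither met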;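 also: stock transfer was 7.5 nL into about 7.5 µL; 0% = neutral wells and 100% = wells with inactivated enzyme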
# Target sequence (P55789 whole entry, looked up): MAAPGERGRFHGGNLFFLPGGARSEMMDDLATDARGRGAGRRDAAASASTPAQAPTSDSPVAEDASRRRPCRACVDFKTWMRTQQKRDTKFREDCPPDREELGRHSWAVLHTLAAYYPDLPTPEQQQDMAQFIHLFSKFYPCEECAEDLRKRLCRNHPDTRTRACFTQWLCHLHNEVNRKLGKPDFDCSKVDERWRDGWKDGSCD
# rRNA inh HTS: reduced GFP signal of wild-type E. coli, primary screen, bacterial rRNA inhibitor project, GFP/RFP fluorescence, OD600, single point | AID 720706, 2013 | E. coli WT GFP vs humanized-ribosome RFP mutants, 24 h; stronger effect = lower value; DMSO median 0, no signal -100 | 1.6% of 350,000 active | GFP signal change (wild-type ribosome), % (concentration not given with the values);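 active = significant combined selectivity score with lowered wild-type GFP, culture density cut under 30%, mutant RFP and density less affected; inactive = any of these conditions unmet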; also: one replicate is shown; some compounds called inactive have numbers as strong as hits
# T cruzi inh: inhibitors of intracellular T. cruzi growth, primary screen, luminescence, NIH3T3 host cells | inhibition, % (no concentration beside the values) | T. cruzi beta-gal in NIH3T3, 90 h | AID 1885, 2009 | 1.4% of 300,000 active;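 active = mean inhibition across valid replicates above about 55%, limit read from the data; inconclusive = mean below that limit but half or more replicates reach it; inactive = mean below it, under half of replicates reach it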;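 also: signal also drops with host cell toxicity which is not excluded here; 0% = plate median of DMSO wells and 100% = zero luminescence signal; higher percent means less beta-gal luminescence so fewer parasites; stock transfer was 50 nL into about 50 µL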
# MLL AF4-AF9 inh: inhibitors of AF4 peptide binding to AF9, primary screen, biochemical, AlphaScreen, biotin-AF4 peptide, FLAG-AF9, single point; inhibition, % at 10 µM; 0.47% of 350,000 active; Protein AF-9 (Homo sapiens), P42568; AID 651704, 2012;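 active = every replicate reaching a set inhibition limit, whatever the replicate mean, cut at about 25% in these data; inconclusive = mean inhibition reaches that limit but some replicates miss it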;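 also: 0% = plate neutral control median and 100% = total signal loss; the record names both 10 and 1 µM as test concentration; the first replicate is given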
# Target sequence (P42568 whole entry, looked up): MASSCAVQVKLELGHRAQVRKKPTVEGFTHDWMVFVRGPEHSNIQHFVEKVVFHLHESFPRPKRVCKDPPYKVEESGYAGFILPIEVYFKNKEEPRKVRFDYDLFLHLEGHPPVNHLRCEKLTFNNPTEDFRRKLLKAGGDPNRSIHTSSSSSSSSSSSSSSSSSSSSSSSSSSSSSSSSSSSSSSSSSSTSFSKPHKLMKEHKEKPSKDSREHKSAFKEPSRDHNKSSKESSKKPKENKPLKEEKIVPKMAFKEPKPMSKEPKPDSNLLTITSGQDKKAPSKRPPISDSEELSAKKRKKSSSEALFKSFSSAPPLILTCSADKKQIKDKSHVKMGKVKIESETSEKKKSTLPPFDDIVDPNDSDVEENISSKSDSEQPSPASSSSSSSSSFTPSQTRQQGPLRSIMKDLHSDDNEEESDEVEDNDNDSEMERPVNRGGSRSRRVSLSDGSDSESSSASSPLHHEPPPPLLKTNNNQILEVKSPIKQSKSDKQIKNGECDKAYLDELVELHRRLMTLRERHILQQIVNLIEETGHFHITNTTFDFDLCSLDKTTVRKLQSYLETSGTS
# FGF22 binding: binders of human FGF22 protein, primary screen, FGF22 synaptogenesis inhibitor project, biophysical, thermal shift, single point. recombinant FGF22 thermal shift, SYPRO orange fluorescence; percent of sucrose octasulfate shift, DMSO zero. calls only at 9.99 µM. 1.5% of 340,000 active;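 active = melting point raised past a set limit in the mean and every replicate; inconclusive = no clear call; three in four hits are not shown here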
# Target sequence (Q9HCT0 whole entry, looked up): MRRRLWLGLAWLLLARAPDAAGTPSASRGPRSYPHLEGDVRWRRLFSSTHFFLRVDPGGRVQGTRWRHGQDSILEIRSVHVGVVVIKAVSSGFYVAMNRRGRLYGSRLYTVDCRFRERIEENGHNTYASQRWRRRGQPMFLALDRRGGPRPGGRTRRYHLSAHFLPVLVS
# Calb FLC: C. albicans growth inhibition with fluconazole, primary screen, CaCi-2 strain, Alamar Blue fluorescence. C. albicans CaCi-2 (fluconazole-resistant clinical isolate) + fluconazole, 48 h. 0.57% of 300,000 active. growth inhibition, % (test concentration not listed);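 active = most replicates above 75%; inconclusive = exactly half above 75%; inactive = most below 75%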;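 also: all wells also contain fluconazole at 8 µg/ml as a sub-toxic cotreatment; 0% = median of DMSO wells and 100% = median of geldanamycin control wells; wells of about 8 µL received 7.5 nL stock; the first replicate is given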
# Beta apoptosis: inhibitors of cytokine-induced beta cell apoptosis, primary screen, luminescence; protection from apoptosis, % (no concentration beside the values); INS-1E cytokine-induced death, ATP luminescence, 48 h; percent of positive-control rescue, neutral wells zero; 0.8% of 300,000 active;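 active = all replicates at 75% or more, or half of them and the mean; inconclusive = half reach 75% but not the mean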;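 also: 0% = cytokine-treated negative control wells and 100% = positive control rescue; higher means more ATP so stronger rescue from cytokine killing; wells of about 40 µL received 100 nL stock; the first replicate is given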
# RanGTP-Impb inh: inhibitors of RanGTP-importin-beta interaction, primary screen, biochemical, FRET, CFP-Ran, YFP-importin-beta, homogeneous; Ran GTPase (GTP-bound) - importin-beta complex; cell-free CFP-Ran/YFP-importin-beta FRET ratio; inhibition, % (no concentration beside the values); 1.1% of 300,000 active;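 active = most replicates above 15%; inconclusive = exactly half above 15%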;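 also: 0% = DMSO wells and 100% = Ran loaded with GDP instead of GTP; wells of about 40 µL received 100 nL stock; the first replicate is given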
# rRNA inh HTS OD600: further read-out of rRNA inh HTS, marked with its call; OD600 change, %; measured here: OD600 growth;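 optical density of the mix in the first replicate; 0 = DMSO median and -100 = no signal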
# rRNA inh HTS RFP: also measured in rRNA inh HTS; calls as there; RFP signal change, %; measured here: RFP humanized mutant strains;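 first replicate; 0 = DMSO median and -100 = no signal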
# Numbers without * were called inactive; i = inactive; ? = inconclusive; . = no result given; & = joins results of further samples. A portion of the library. The share of hits here may be higher or lower than overall.
SMILES	FGF22 binding	RanGTP-Impb inh	MLL AF4-AF9 inh	rRNA inh HTS RFP	ALR H2O2 inh	Beta apoptosis	rRNA inh HTS	rRNA inh HTS OD600	T cruzi inh	Calb FLC
C=CCNC(=O)c1n[nH]c2c1CC(C(C)(C)CC)CC2 (stereo not drawn)	i	.	-2.5	-4.9	7	1	-1	4	.	.
CC(C)C[C@@]12C(=O)N(c3cccc(F)c3)C(=O)N1[C@H](c1ccc(Br)cc1)[C@@H]1C(=O)N(C(C)(C)C)C(=O)[C@@H]12	.	1.5	.	.	-11	4	.	.	9	15
C=CCOC(=O)C1=C[C@H](c2ccc(C(F)(F)F)cc2)[C@@H](CCCO)[C@H](OCC)O1	i	2.2	-1.5	0.3	4	1	7	-3	-3	8
COc1cccc(CNC(=O)CCCc2nnc3n(C)c(=O)c4sccc4n23)c1	i	0.9	-0.3	1.4	4	-6	1	5	1	7
CSc1ncccc1C(=O)OCC(=O)N1CCc2ccccc21	i	.	-0.1	-1.8	0	-3	4	14	.	.
O=c1cc([O-])[n+]2c3n1CCCN3CCC2	.	-1.4	.	.	-1	4	.	.	-9	6
O=C1CC(c2ccc(F)cc2)Cc2nc(NCc3ccco3)ncc21 (stereo not drawn)	.	0.3	.	.	0	.	.	.	-9	-1
Clc1cc(Cl)c(OCCCCn2cncn2)c(Cl)c1	i	-1.4	-2.1	-4.1	.	4	-18	-11	21	12
COC(=O)c1ccc(/C=N/Nc2nc(-c3ccc(C)cc3)cs2)cc1	.	3.1	.	.	.	-6	.	.	-10	1
O=C1N=c2ccccc2=C1c1sc(NS(=O)(=O)c2ccccc2)nc1O	i	2.5	-0.3	-0.3	-18	0	3	-9	-3	-2
COc1ccccc1C1/C(=C(/O)c2ccc(C)cc2)C(=O)C(=O)N1CCN1CCOCC1 (stereo not drawn)	.	0.2	.	.	.	-5	.	.	-15	4
O=C(Cn1nnc2ccccc2c1=O)NCc1ccco1	.	-0.6	.	.	-1	0	.	.	-28	0
Fc1ccccc1-c1n[nH]c(=S)n1C1CC1	i	-2.9	-5.2	0.9	67	-6	8	8	-10	1
CC1Cc2ccccc2N1C(=S)NC(=O)c1ccco1 (stereo not drawn)	.	-1.7	-2.8	8.6*	.	-6	-27*	15*	-17	-1
Cc1[nH]c(SCC(=O)Nc2cc(S(C)(=O)=O)ccc2Cl)nc1Cc1ccccc1	i	.	8.2	6.8*	2	-3	-22*	-16*	.	.
Cc1cn2c(N)c(C=C3C=C(Cl)C(=O)C(Cl)=C3)c(=O)nc2s1	i	9.3	0.7	1.8	.	.	18	8	-1	-5
CC(=O)c1cccc(NC(=O)C(CC(C)C)NC(=O)C2CCCCC2)c1 (stereo not drawn)	i	-1.2	5.8	-8.4	-13	-5	-6	-11	9	-6
COc1ccc(C(=O)Nc2sc(C(=O)N(C)C)c(C)c2C#N)cc1[N+](=O)[O-]	.	2.4	.	.	-3	-1	.	.	3	32
CCOc1ccccc1NC(=S)N1CCN(c2ccc(O)cc2)CC1	i	-0.2	3.2	-0.5	99*	4	2	3	15	-14
CC1(C)CC(=O)C(C=NCC2CCN(C(=S)Nc3cccc(Cl)c3)CC2)=C(O)C1	i	2.4	0.7	2.3	7	0	-20	-25	-14	-3
O=C(CCN1CCOCC1)Nc1ccc2c(c1)N(C(=O)CN1CCOCC1)c1ccccc1CC2	i	-1.7	-27	-3.1	12	2	13	8	-21	-3
COc1cccc(NC(=O)CN(C)CC(=O)Nc2ccccc2-c2ccccc2)c1	i	?	1.0	5.4*	-45	-4	-24*	-19*	-14	8
CCOC(=O)C(O)(CC(=O)Nc1ccc(Cl)cc1Cl)C(F)(F)F (stereo not drawn)	.	-3.8	.	.	.	-3	.	.	2	-3
CCCCOC(=O)c1ccc(NC(=O)c2nn(C)cc2Br)cc1	.	-2.6	.	.	.	6	.	.	5	1
CC(C)C(=O)Nc1ccc(C(=O)NNC(=O)c2ccco2)cc1	.	5.8	.	.	-2	-1	.	.	-20	-26
O=C(CSc1n[nH]c(-c2cccnc2)n1)Nc1ccc([N+](=O)[O-])cc1	i	1.2	0.5	-1.0	.	3	-4	4	-15	-8
O=C(CCC1CCCC1)NCCS(=O)(=O)N1CCN(c2ccc(F)cc2)CC1	i	1.9	0.4	2.1	-8	.	9	8	-2	7
Cc1ccc(C(C)C)c(OCC(=O)Nc2ccc3c(c2)nc(CCN2CCCCC2)n3C)c1	i	7.0	14	-17	-3	53	-53	-81	35	.
O=C(Cn1ncc2c1-c1ccccc1OC2)N1CCN(Cc2ccccc2)CC1	i	-1.8	-4.6	1.9	-3	-3	1	-2	8	-2
Cc1nn(-c2ccccc2)cc1/C=N/NS(=O)(=O)c1ccccc1	i	-1.3	0.5	-2.5	14	-5	-5	-2	5	-51
O=C(CN1CCN(Cc2cccc3ccccc23)CC1)NCCc1ccccc1	i	3.1	-5.8	1.3	-25	3	-16	-14	?	-11
COc1cc(NC(=O)c2ccco2)c(OC)cc1NC(=O)CSc1ncc(-c2ccc(F)cc2)[nH]1	.	1.3	.	.	39	9	.	.	14	15
Cc1nc(NC(C)c2ccccc2)sc1C(=O)Nc1ccccc1 (stereo not drawn)	i	9.3	6.6	-2.0	-1	7	-21	-21	15	-11
CCOC(=O)c1sc(SC)c(C(C)=O)c1C	.	2.0	.	.	41	2	.	.	6	3
O=C(O)C1CCCCC1C(=O)NCc1ccc(F)cc1 (stereo not drawn)	.	7.3	.	.	-2	-5	.	.	-8	0
Cc1noc(C)c1COc1ccc(CC(=O)NCCc2ccccc2)cc1	.	-2.8	-1.7	.	-3	4	.	.	3	-5
O=C(NNC1=NCCC1)c1cccc(S(=O)(=O)N2CCCCC2)c1	i	-3.0	1.3	1.3	4	0	9	15	-5	-12
COc1cc(C(=O)NC(=S)Nc2ccc(Cc3ccncc3)cc2)cc(OC)c1OC	i	-1.7	3.6	8.8	1	-2	-6	-9	14	-1
O=C(C1=C[C@H](C2CCCCC2)C[C@H](OCc2ccc(CO)cc2)O1)N1CCOCC1	i	-0.8	-0.9&1.7	13	5	-2	-22	-16	12	-10
CCN(C(=O)c1ccc2c(SCC(=O)O)c3c(nc2c1)CCC3)c1cc(Cl)ccc1OC	i	2.4	3.5	-2.4	17	-6	-4	-8	-20	-2
FC(F)(F)c1ccc(Cl)c(NC(=S)N/N=C/c2ccccc2Cl)c1	i	-0.6	-0.4	5.5	-10	-5	11	5	-27	-21
CC(C)n1cnc2c(Nc3ccc(F)c(Cl)c3)nc(NCCO)nc21	i	6.7	5.0	-14	39	-2	-25	-26	31	-12
C=CCOc1ccc(C2CC(C)=NN2c2ccccc2)cc1 (stereo not drawn)	i	-2.0	-0.6	-10	46	4	-14	-16	11	-1
CCCSc1nc2c(c(=O)n(C)c(=O)n2C)n1C	i	-2.2	-2.7	1.3	-31	0	14	7	-3	-4
CC(=O)NCCn1c(SCC(=O)NC2CCCCC2)nc2ccccc2c1=O	i	18*	-2.8	0.3	.	-1	5	-6	-10	1
O=C(CNC(=O)c1ccco1)Nc1ccc(Cl)cc1	i	-3.5	-3.1	0.4	2	-2	13	18	-3	-15
COc1cccc(N2CCN(C(=O)c3ccc4nc(N5CCCCC5)sc4c3)CC2)c1	i	3.4	8.1	-0.5	-7	-3	-8	-18	37	-9
COC(=O)c1ccc(C(C(=O)NCc2ccccc2)N(Cc2ccco2)C(=O)c2cnccn2)cc1 (stereo not drawn)	.	2.8	.	.	1	-4	.	.	4	0
CC1(C)CC(=O)c2cnc(NC(=O)CCc3ccccc3)nc2C1	.	?	.	.	3	-2	.	.	-14	0
Cc1nn(C)cc1/C=C1\SC(=S)NC1=O	.	8.0	.	.	-1	.	.	.	3	17

# Carrying on:
SMILES	FGF22 binding	RanGTP-Impb inh	MLL AF4-AF9 inh	rRNA inh HTS RFP	ALR H2O2 inh	Beta apoptosis	rRNA inh HTS	rRNA inh HTS OD600	T cruzi inh	Calb FLC
CCOC(=O)c1ccc(NC(=O)c2nn(CC)cc2Br)cc1	.	3.8	.	-17	-6	5	-32	-39	10	-16
CSc1ncccc1C(=O)OCC(=O)NCCc1ccccc1	i	.	-3.1	-1.4	2	4	-3	-7	.	.
COc1ccccc1C(c1c(O)nc(SC)[nH]c1=O)c1c(O)nc(SC)[nH]c1=O	i	-0.4	-1.9	0.8	44	-3	-2	3	-14	-8
CCC(NC(=O)c1ccccc1NC(=O)c1ccc(OC)cc1)C(=O)N1CCCC1 (stereo not drawn)	i	2.4	-2.8	4.1	-3	-9	17	13	13	22
COC(=O)c1cc(-c2ccc(S(=O)(=O)N3CCCC(C)C3)cc2)c(C(F)(F)F)s1 (stereo not drawn)	i	2.0	7.0	1.8	-24	2	7	-17	13	-1
O=C(NNC(=S)Nc1ccccc1)C1CC1	.	-2.6	.	.	45	-10	.	.	-2	-1
COc1ccc(C(CCc2ccc(C)o2)NC(=O)Nc2ccc(OC)cc2OC)cc1 (stereo not drawn)	.	0.7	.	.	41	-4	.	.	13	-10
O=C(NC(=S)N1CCCCC1)c1cccnc1	.	-0.7	-4.6	.	-3	0	.	.	-10	-2
O=C1C=C(c2cc(Cl)cc(Cl)c2)C[C@@H](c2ccc3c(c2)OCO3)C1	i	.	-3.7	4.5	0	-3	25	27	.	.
O=S(=O)(NCc1ccccc1)c1cccs1	.	-0.5	.	.	-10	-3	.	.	4	-6
COc1ccc(/C=N/NC(=O)c2ccc(Br)cc2)c(OC)c1	i	4.9	7.4	-1.0	-1	-2	18	16	-8	-8
COc1ccc(NC(=O)C(NC(=O)c2ccc(C)cc2)c2ccccc2)cc1 (stereo not drawn)	i	2.1	-2.8	0.1	-1	-2	-2	9	4	2
COc1cc(C(=O)NNC(=O)CNC(=O)C2CCCCC2)ccc1OC(C)C	i	.	-1.3	0.7	.	-3	17	11	.	.
COc1ccc(S(=O)(=O)N2CCN(C(C)C(=O)Nc3ccc(C(C)C)cc3)CC2)cc1 (stereo not drawn)	i	.	0.4	.	-3	-5	.	.	.	.
Cc1nn(Cc2c(F)c(F)c(F)c(F)c2F)c(C)c1NC(=O)c1cccc(COc2ccc(Cl)cc2)c1	.	1.7	.	.	-5	21	.	.	.	1
Cc1ccc(C)c(Cc2c(C)nc(C)[nH]c2=O)c1	.	1.2	.	.	4	-2	.	.	-16	-26
O=C(NCC1CCCO1)C(Cc1ccccc1)N1C(=O)C2C3C=CC(C4CC34)C2C1=O (stereo not drawn)	.	4.1	0.6	2.5	-5	-10	15	16	0	-5
